# FGF22 binding: binders of recombinant human FGF22 by thermal shift; Q9HCT0; SYPRO orange fluorescence; percent of sucrose octasulfate shift, DMSO zero; calls only at 9.99 µM; actives 1.5% (n = 340,000);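 active = melting point raised past a set limit in the mean and every replicate; three in four hits are not shown here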
# Target sequence (Q9HCT0 whole entry, looked up): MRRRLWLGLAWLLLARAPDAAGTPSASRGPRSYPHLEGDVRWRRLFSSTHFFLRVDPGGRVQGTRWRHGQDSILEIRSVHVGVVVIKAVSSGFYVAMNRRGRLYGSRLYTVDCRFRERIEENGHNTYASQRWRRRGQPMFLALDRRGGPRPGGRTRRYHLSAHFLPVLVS
# MLL AF4-AF9 inh: MLL-AF4/AF9 protein interaction inhibition; AlphaScreen, biotin-AF4 peptide binding to FLAG-AF9; inhibition, % at 10 µM; P42568; actives 0.47% (n = 350,000);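 active = every replicate reaching a set inhibition limit, whatever the replicate mean, cut at about 25% in these data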;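 also: 0% = plate neutral control median and 100% = total signal loss; the record names both 10 and 1 µM as test concentration; the first replicate is given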
# Target sequence (P42568 whole entry, looked up): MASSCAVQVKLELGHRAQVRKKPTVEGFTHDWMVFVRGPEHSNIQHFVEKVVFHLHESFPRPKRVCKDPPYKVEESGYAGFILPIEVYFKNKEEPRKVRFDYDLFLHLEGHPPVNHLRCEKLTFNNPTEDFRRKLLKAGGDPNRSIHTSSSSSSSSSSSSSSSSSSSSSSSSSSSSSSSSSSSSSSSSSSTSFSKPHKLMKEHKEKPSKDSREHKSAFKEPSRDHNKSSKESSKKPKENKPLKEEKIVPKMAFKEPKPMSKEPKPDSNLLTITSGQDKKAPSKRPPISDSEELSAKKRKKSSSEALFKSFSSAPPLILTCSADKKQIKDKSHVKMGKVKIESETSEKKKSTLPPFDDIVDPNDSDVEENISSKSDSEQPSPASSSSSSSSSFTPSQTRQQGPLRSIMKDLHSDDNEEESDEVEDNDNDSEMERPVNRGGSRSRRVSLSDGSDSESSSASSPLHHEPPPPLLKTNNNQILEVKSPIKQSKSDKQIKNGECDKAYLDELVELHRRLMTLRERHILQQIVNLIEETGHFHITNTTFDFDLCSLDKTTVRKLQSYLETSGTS
# rRNA inh HTS: inhibitors of bacterial rRNA selective over humanized ribosomes; E. coli WT GFP vs humanized-ribosome RFP mutants, fluorescence, 24 h; stronger effect = lower value; DMSO median 0, no signal -100; GFP signal change (wild-type ribosome), % (no concentration beside the values); actives 1.6% (n = 350,000);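 active = significant combined selectivity score with lowered wild-type GFP, culture density cut under 30%, mutant RFP and density less affected; inactive = any of these conditions unmet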; also: one replicate is shown; some compounds called inactive have numbers as strong as hits
# rRNA inh HTS OD600: second read-out of rRNA inh HTS, no call of its own (marks repeat the call); OD600 change, %; measured here: OD600 growth;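 optical density of the mix in the first replicate; 0 = DMSO median and -100 = no signal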
# rRNA inh HTS RFP: further read-out of rRNA inh HTS, marked with its call; RFP signal change, %; measured here: RFP humanized mutant strains;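 first replicate; 0 = DMSO median and -100 = no signal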
# * marks the source's active call; other numbers are inactive results; i = inactive; nt = not tested or not shown. Some of the compounds tested. The share of hits here may be higher or lower than overall.
# Field names: A = FGF22 binding; B = MLL AF4-AF9 inh; C = rRNA inh HTS; D = rRNA inh HTS OD600; E = rRNA inh HTS RFP
1: CN(C)C(=O)C[C@@H]1CC[C@H](NC(=O)C2CC2)[C@@H](CO)O1
  A = i	B = -3.0	C = nt	D = nt	E = nt
2: CCCC#Cc1ccc(CC[C@H]2O[C@H]3CC[C@H](CO)O[C@H]3C[C@@H]2n2cc(C(C)(C)O)nn2)cc1
  A = i	B = -2.8	C = nt	D = nt	E = nt
3: CCCCC[C@@H]1C=C(C(=O)O)[C@H](c2ccc3c(c2)OCO3)N1S(=O)(=O)c1ccc(C)cc1
  A = i	B = -4.8	C = nt	D = nt	E = nt
4: CCCNC(=O)Nc1ccc2c(c1)OC[C@H](C)N(CC1CCCC1)C[C@H](C)[C@@H](OC)CN(C)C2=O
  A = i	B = 2.6	C = nt	D = nt	E = nt
5: CCC(=O)Nc1ccc2c(c1)C(=O)N(C)C[C@H](OC)[C@@H](C)CN(C(=O)c1cccnc1)[C@H](C)CO2
  A = i	B = 0.3	C = nt	D = nt	E = nt
6: Cc1ccc(N(CC(=O)NC(C)(C)C)C(=O)CCC(=O)Nc2ccccn2)cc1
  A = i	B = -2.1	C = nt	D = nt	E = nt
7: CN1CCN(C(=O)C2=C[C@H](C3CC3)C[C@H](OCCCCO)O2)CC1
  A = i	B = -3.5	C = nt	D = nt	E = nt
8: O=C(N1CCOCC1)[C@]1(CCS(=O)(=O)c2ccccc2)N=C(c2ccc(OCCCO)cc2)O[C@@H]1c1ccccc1
  A = i	B = 8.2	C = nt	D = nt	E = nt
9: O=C(CS)NCCCCCCNC(=O)[C@@H]1C[C@@H]2C(=O)NCC(=O)N2[C@@H]1c1ccc(O)cc1
  A = i	B = -4.7	C = nt	D = nt	E = nt
10: CN(C)CCCC[C@@H]1NC(=O)[C@H]2C[C@@H](C(=O)NCc3ccc(F)cc3)[C@@H](c3ccc(O)cc3)N2C1=O
  A = i	B = 7.9	C = nt	D = nt	E = nt
11: CC(=O)Oc1cccc2c1C(=O)C1CC=CC(OC(C)=O)C1C2=O (centres undefined)
  A = i	B = 7.0	C = nt	D = nt	E = nt
12: O=S(=O)(N[C@@H]1CCCN(Cc2ccc(OCCO)cc2)C1)c1ccccc1
  A = i	B = 8.6	C = nt	D = nt	E = nt
13: CN1CCN(C(=O)C2=C[C@@H](c3ccc4c(c3)OCO4)C[C@@H](OCCCCO)O2)CC1
  A = i	B = 1.4	C = nt	D = nt	E = nt
14: COc1ccc(CNC(=O)c2ccccc2NC(=O)C2=C(C)OCCS2)cc1
  A = i	B = 3.3	C = nt	D = nt	E = nt
15: O=C(N[C@H]1C[C@@H]2O[C@H](CO)CC[C@@H]2O[C@@H]1CCc1ccc(-c2ccccc2)cc1)c1cnccn1
  A = i	B = 2.0	C = nt	D = nt	E = nt
16: COc1ccc(CC(=O)NCC(=O)N/N=C/c2ccco2)cc1
  A = i	B = -2.5	C = nt	D = nt	E = nt
17: O=C(N[C@@H]1C[C@@H]2O[C@H](CO)CC[C@@H]2O[C@@H]1CCc1ccc(-c2cccnc2)cc1)c1cccc(F)c1
  A = i	B = -1.2	C = nt	D = nt	E = nt
18: COc1ccc(-c2ccc(CN3C(C(C)C)C(=O)N(Cc4cn(Cc5ccco5)nn4)CCS3(=O)=O)cc2)cn1 (centres undefined)
  A = i	B = 1.1	C = nt	D = nt	E = nt
19: COc1cc(OC)c(NC(=O)C(Sc2nc(C)cc(C)c2C#N)c2ccccc2)cc1Cl (centres undefined)
  A = i	B = -7.2	C = nt	D = nt	E = nt
20: O=C(Nc1ccc2c(c1)OCO2)c1cc(C2CCCCN2C(=O)c2ccc(Cl)cc2)on1 (centres undefined)
  A = i	B = 1.2	C = nt	D = nt	E = nt
21: C[C@H](CO)N1C[C@H](C)[C@H](CN(C)S(=O)(=O)c2ccc(Cl)cc2)Oc2c(NS(=O)(=O)c3cccs3)cccc2C1=O
  A = i	B = -3.1	C = nt	D = nt	E = nt
22: COc1ccc(C#Cc2ccc3c(c2)[C@]2(C(=O)N3)[C@H](C(=O)N3CCc4cc(OC)c(OC)cc4C3)[C@H]3C(=O)O[C@H](c4ccccc4)[C@H](c4ccccc4)N3[C@@H]2c2ccccc2OCCO)cc1
  A = i	B = -2.0	C = nt	D = nt	E = nt
23: CC(=O)C1=CCC(c2cccc3ccccc23)N(S(=O)(=O)c2ccc(C)cc2)C1 (centres undefined)
  A = i	B = -1.6	C = nt	D = nt	E = nt
24: COc1ccc(C(=O)C(=O)N2CCN(C(=O)c3cc(C(F)(F)F)cc(C(F)(F)F)c3)CC2)cc1OC
  A = i	B = -3.2	C = nt	D = nt	E = nt
25: COc1cc2c(cc1OC)[C@@]13ON=C(c4ccc(OCCO)cc4)[C@@H]1CCN3CC2
  A = i	B = -2.8	C = nt	D = nt	E = nt
26: C[C@H](CO)N1C[C@H](C)[C@@H](CN(C)C(=O)Nc2ccc3c(c2)OCO3)OCCCC[C@H](C)Oc2ccc(NC(=O)Cc3ccccc3)cc2C1=O
  A = i	B = nt	C = -5	D = -5	E = 2.9
27: Cc1ccc(S(=O)(=O)N(C)C[C@H]2Oc3c(NS(=O)(=O)c4ccc(F)cc4)cccc3C(=O)N([C@H](C)CO)C[C@@H]2C)cc1
  A = i	B = nt	C = -3	D = -3	E = 1.2
28: CCNC(=O)[C@@H]1[C@@H](CO)[C@@H]2Cn3c(ccc(C4=CCCC4)c3=O)[C@H]1N2Cc1ccccc1
  A = i	B = nt	C = 2	D = 3	E = -1.4
29: C[C@@H]1CN([C@H](C)CO)C(=O)Cc2cc(NC(=O)Cn3cnnn3)ccc2O[C@@H]1CN(C)C(=O)Nc1cccc2ccccc12
  A = i	B = nt	C = 5	D = -1	E = 0.9
30: CNC(=O)C[C@H]1CC[C@@H]2[C@H](COc3ccc(NC(=O)C(C)C)cc3C(=O)N2C)O1
  A = i	B = nt	C = 1	D = 1	E = -0.4
31: CCNC(=O)C[C@H]1CC[C@H]2[C@@H](COC[C@@H](O)CN2C(=O)c2ccccn2)O1
  A = i	B = nt	C = 4	D = 16	E = -3.0
32: COc1ccc(N2C(=O)c3ccccc3NC(=O)C2C(=O)NCc2ccco2)cc1 (centres undefined)
  A = i	B = nt	C = 8	D = 9	E = 0.8
33: COc1ccc(S(=O)(=O)N(C)C[C@H]2Oc3ccc(NC(=O)Nc4ccc(F)cc4)cc3CC(=O)N([C@H](C)CO)C[C@@H]2C)cc1
  A = i	B = nt	C = 0	D = -1	E = -0.1
34: COc1ccc(CN(C)C[C@H]2OCCCC[C@@H](C)Oc3ccc(NC(=O)Cc4ccccc4)cc3C(=O)N([C@@H](C)CO)C[C@@H]2C)cc1
  A = i	B = nt	C = 1	D = -6	E = 3.0
35: C[C@@H]1CN([C@@H](C)CO)C(=O)Cc2cc(NC(=O)Cc3ccccc3)ccc2O[C@H]1CN(C)Cc1ccc(C(=O)Nc2ccccc2N)cc1
  A = i	B = nt	C = -3	D = -2	E = 1.2
36: COc1ccc(S(=O)(=O)N(C)C[C@@H]2Oc3ccc(NC(=O)Nc4ccc(F)cc4)cc3CC(=O)N([C@H](C)CO)C[C@H]2C)cc1
  A = i	B = nt	C = 0	D = -3	E = 0.8
37: CCCNC(=O)C[C@@H]1C[C@H]2c3cc(NS(=O)(=O)c4ccc(OC)cc4)ccc3O[C@H]2[C@@H](CO)O1
  A = i	B = nt	C = -1	D = -5	E = -4.4
38: Oc1ccc(F)c(CN2CCN(c3ncc(Cc4ccccc4)cn3)CC2)c1
  A = i	B = nt	C = -54	D = -80	E = -17
39: C[C@@H]1CN([C@H](C)CO)C(=O)Cc2cc(NC(=O)Nc3ccc4c(c3)OCO4)ccc2O[C@@H]1CN(C)S(=O)(=O)c1cn(C)cn1
  A = i	B = nt	C = 1	D = -3	E = -0.1
40: CCNC(=O)Nc1ccc2c(c1)C(=O)N(C)[C@H]1CC[C@H](CC(=O)NCc3cccc(F)c3)O[C@H]1CO2
  A = i	B = nt	C = 0	D = 2	E = 0.8
41: COC(=O)C[C@@H]1CC[C@@H]2[C@@H](COc3ccc(NC(=O)c4cccs4)cc3C(=O)N2C)O1
  A = i	B = nt	C = 0	D = -1	E = 0.6
42: N#Cc1ccc(-c2ccc3c(c2)[C@@H]2[C@@H](CCN2C(=O)Cc2ccncc2)[C@@H](CO)N3)cc1
  A = i	B = nt	C = 4	D = -3	E = -6.3
43: CN1CCCCC(NC(=O)CCl)C1=O (centres undefined)
  A = i	B = nt	C = 9	D = 11	E = 0.7
44: Cc1ccc(S(=O)(=O)N2[C@H](CC(=O)c3ccccc3)OC[C@@H]2C)cc1
  A = i	B = nt	C = -17	D = -21	E = 3.5
45: C[C@@H]1CN([C@H](C)CO)C(=O)c2cc(NC(=O)Nc3ccc(F)cc3)ccc2O[C@@H](C)CCCCO[C@@H]1CN(C)S(=O)(=O)c1ccc(F)cc1
  A = i	B = nt	C = 3	D = 3	E = -0.9
46: C[C@@H]1CN([C@@H](C)CO)C(=O)c2cc(NS(=O)(=O)c3cccs3)ccc2O[C@@H](C)CCCCO[C@H]1CN(C)C(=O)CCC(F)(F)F
  A = i	B = nt	C = 1	D = -9	E = -1.1
47: COCC(=O)Nc1ccc2c(c1)C(=O)N(C)[C@@H]1CC[C@H](CC(=O)OC)O[C@H]1CO2
  A = i	B = nt	C = 3	D = -2	E = 2.0
48: CN(C)CCCNC(=O)C[C@@H]1CC[C@@H]2[C@H](COC[C@@H](O)CN2CC2CCCC2)O1
  A = i	B = nt	C = 4	D = 9	E = -4.7
49: CCCCNC(=O)c1nc(C2CCNCC2)oc1-c1ccccc1
  A = i	B = nt	C = 25	D = 14	E = 0.9
50: O=C(C[C@H]1CC[C@H]2[C@@H](COC[C@H](O)CN2C(=O)Cc2ccccc2)O1)NC1Cc2ccccc2C1
  A = i	B = nt	C = -3	D = -11	E = -4.6
51: COc1ccc(S(=O)(=O)Nc2ccc3c(c2)CC(=O)N([C@H](C)CO)C[C@H](C)[C@@H](CN(C)C(=O)Nc2ccc(F)cc2)O3)cc1
  A = i	B = nt	C = 0	D = 0	E = -1.0
52: Cc1noc(C)c1S(=O)(=O)Nc1ccc2c(c1)C(=O)N([C@@H](C)CO)C[C@@H](C)[C@@H](CN(C)S(=O)(=O)c1cccs1)OCCCC[C@@H](C)O2
  A = i	B = nt	C = -4	D = -1	E = -0.5
53: O=[N+]([O-])c1ccccc1CCO
  A = i	B = nt	C = 3	D = 8	E = -1.7
54: Cc1cccc(S(=O)(=O)N2CC[C@H]3[C@H](CO)Nc4ccc(-c5ccccc5F)cc4[C@H]32)c1
  A = i	B = nt	C = -8	D = -48	E = 13
55: COCc1cc(N2CCN(C(=O)OC(C)(C)C)C[C@@H]2C)ccc1N1CCS(=O)(=O)CC1
  A = i	B = nt	C = 14	D = 12	E = 6.3
56: COCCNC(=S)N(C)[C@H]1C[C@H]2c3[nH]c4cccc(-c5ccccc5)c4c3CCN2C(=O)[C@H]1[C@H](C)O
  A = i	B = nt	C = -33	D = -62	E = 0.1
57: C[C@@H]1CCCCO[C@H](CN(C)S(=O)(=O)c2cccs2)[C@@H](C)CN([C@@H](C)CO)C(=O)c2cc(NC(=O)Nc3cccc4ccccc34)ccc2O1
  A = i	B = nt	C = -8	D = -7	E = -3.1
58: COC(=O)C1=C(C)N(Cc2ccccc2C(F)(F)F)C(=NCC2CC2)NC1c1ccc(F)cc1 (centres undefined)
  A = i	B = nt	C = -46	D = -77	E = -14

# Laid out differently: entries from further up.
entry | molecule | FGF22 binding | MLL AF4-AF9 inh | rRNA inh HTS | rRNA inh HTS OD600 | rRNA inh HTS RFP
50 | O=C(C[C@H]1CC[C@H]2[C@@H](COC[C@H](O)CN2C(=O)Cc2ccccc2)O1)NC1Cc2ccccc2C1 | i | nt | -3 | -11 | -4.6
51 | COc1ccc(S(=O)(=O)Nc2ccc3c(c2)CC(=O)N([C@H](C)CO)C[C@H](C)[C@@H](CN(C)C(=O)Nc2ccc(F)cc2)O3)cc1 | i | nt | 0 | 0 | -1.0
52 | Cc1noc(C)c1S(=O)(=O)Nc1ccc2c(c1)C(=O)N([C@@H](C)CO)C[C@@H](C)[C@@H](CN(C)S(=O)(=O)c1cccs1)OCCCC[C@@H](C)O2 | i | nt | -4 | -1 | -0.5
53 | O=[N+]([O-])c1ccccc1CCO | i | nt | 3 | 8 | -1.7
54 | Cc1cccc(S(=O)(=O)N2CC[C@H]3[C@H](CO)Nc4ccc(-c5ccccc5F)cc4[C@H]32)c1 | i | nt | -8 | -48 | 13
55 | COCc1cc(N2CCN(C(=O)OC(C)(C)C)C[C@@H]2C)ccc1N1CCS(=O)(=O)CC1 | i | nt | 14 | 12 | 6.3
56 | COCCNC(=S)N(C)[C@H]1C[C@H]2c3[nH]c4cccc(-c5ccccc5)c4c3CCN2C(=O)[C@H]1[C@H](C)O | i | nt | -33 | -62 | 0.1
57 | C[C@@H]1CCCCO[C@H](CN(C)S(=O)(=O)c2cccs2)[C@@H](C)CN([C@@H](C)CO)C(=O)c2cc(NC(=O)Nc3cccc4ccccc34)ccc2O1 | i | nt | -8 | -7 | -3.1
58 | COC(=O)C1=C(C)N(Cc2ccccc2C(F)(F)F)C(=NCC2CC2)NC1c1ccc(F)cc1 (centres undefined) | i | nt | -46 | -77 | -14

# Screening results: PubChem, Broad Institute
